Sfp inh – inhibitors of Bacillus subtilis Sfp phosphopantetheinyl transferase | Biochemical Sfp PPTase activity, qHTS | Potency, µM, for the others: max response, negative = inhibition, usual class: inhibitors | actives 3.5% (n = 310,000); active = well fitted inhibition curve with a large enough effect; inconclusive = small, poorly fitted or top-dose-only effect, or another doubt; inactive = no such curve, though single readings can be large or run the other way;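 also: the enzyme is Sfp with the accession as filed and its product quenches rhodamine fluorescence; potency is read from the fitted curve at half-maximal effect; 0% = enzyme reaction without inhibitor and -100% = no enzyme wells; top concentration of the series not given in the record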
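With Hepes-Na pH 7.6 buffer containing 10 mM MgCl2, Sfp (15 nM) modified BHQ-2-YbbR (12.5 uM) using rhodamine-CoA (5 uM). Two reads 30 minutes apart at 525/598 nm yielded each well's rate.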
TRPML1 ag – activates the human TRPML1 channel. Q9GZU1. TRPML1-expressing cells, Ca2+ dye fluorescence, FDSS; host cell line not named in the record; reference of the full effect not given here. activation, % (test concentration not listed). actives 0.12% (n = 410,000). AID 624414; in the data active = activation above about 50%; inconclusive = about 30% to 50%; inactive = below about 30%; also: 0% is about no effect; the text of the record puts the active cut at 80%
Target sequence (Q9GZU1 whole entry, looked up): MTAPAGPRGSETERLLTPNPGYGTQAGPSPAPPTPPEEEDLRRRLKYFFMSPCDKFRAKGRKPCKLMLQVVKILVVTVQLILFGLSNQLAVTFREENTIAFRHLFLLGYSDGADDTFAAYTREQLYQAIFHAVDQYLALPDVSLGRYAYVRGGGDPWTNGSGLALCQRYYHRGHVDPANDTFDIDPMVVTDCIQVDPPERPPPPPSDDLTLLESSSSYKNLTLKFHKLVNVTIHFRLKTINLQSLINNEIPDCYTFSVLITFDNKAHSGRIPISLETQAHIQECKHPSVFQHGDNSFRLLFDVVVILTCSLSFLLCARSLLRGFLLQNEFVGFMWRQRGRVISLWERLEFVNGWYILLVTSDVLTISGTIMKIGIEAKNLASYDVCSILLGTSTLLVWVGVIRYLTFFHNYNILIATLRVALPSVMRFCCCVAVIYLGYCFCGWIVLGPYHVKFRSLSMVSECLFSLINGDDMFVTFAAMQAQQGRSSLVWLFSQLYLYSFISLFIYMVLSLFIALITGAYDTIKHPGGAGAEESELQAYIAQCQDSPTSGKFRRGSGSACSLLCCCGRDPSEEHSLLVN
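TRPML1-DL cells, Tet-induced overnight (~16 h, 37 degrees C), loaded 45-90 min at room temperature with Ca8 no-wash calcium dye plus quencher. FDSS fluorescence: 10 s baseline, compound pin-transfer, 110 s agonist read, then EC80 54-4 (4uM final) and 110 s antagonist read.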
TRPV1 PAM – potentiators of human vanilloid receptor 1 (TRPV1); TRPV1-expressing cells, Fluo-8 calcium influx, capsaicin EC20 potentiation; host cell line not named in the record; control for the full effect not named in the record; Q8NER1; potentiation, % at 8.33 µM; actives 0.02% (n = 320,000); active means potentiation above 80%; inconclusive means 30% to 80%; inactive means below 30%; also: 0% is about no effect
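TRPV1-expressing cells were cultured overnight at 35.5C and loaded with Fluo-8 calcium dye for 40 to 90 min at room temperature. After a 10 s baseline, compound was added and calcium influx was read kinetically for 3 min (ex 480/em 520 nm).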
PINK1 modulator – modulators of PINK1 expression. PINK1 immunofluorescence, high-content cytometry, 24 h. Potency, µM (highest dose often 76.6 µM), for inactives: top-dose activation (PINK1 increase), hits mostly activators. actives 0.2% (n = 410,000). AID 624263; active = well fitted activation curve with a large enough effect; inconclusive = small, poorly fitted or top-dose-only effect; inactive = flat fitted curve, though single readings scatter; cell line not stated here;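 also: potency is read from the fitted curve at half-maximal effect; % of control where 0% means no effect; nearly all actives have a fitted effect of over 65% in size; a mitochondrial uncoupler was the plate control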
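Compound titrations (5 concentrations, 24 h) on a stable cell line; DMSO and CCCP controls. Endpoint: fixed-cell PINK1 immunofluorescence with mitochondrial, cell and nuclear markers, scanned by microplate cytometer.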
ClpP mod – qHTS Assay for Activators of ClpP. Potency, µM (top dose mostly 57.5 µM), for inactives: at the top dose activity change, negative = active. AID 651965, 2013. ATP-dependent Clp protease proteolytic subunit (Bacillus subtilis (strain 168)), P80244. purified B. subtilis ClpP, FRET peptide cleavage, 20 min. actives 1.9% (n = 340,000); active = well fitted falling curve with a large enough effect; inconclusive = small, poorly fitted or top-dose-only effect; inactive = no such curve, though single readings can be large or run the other way; also: potency is read from the fitted curve at half-maximal effect; the source files actives as falling curves though it sought activators and does not explain the sign; nearly all actives have a fitted effect of over 65% in size; many hits overshoot -100%
Target sequence (P80244 whole entry, looked up): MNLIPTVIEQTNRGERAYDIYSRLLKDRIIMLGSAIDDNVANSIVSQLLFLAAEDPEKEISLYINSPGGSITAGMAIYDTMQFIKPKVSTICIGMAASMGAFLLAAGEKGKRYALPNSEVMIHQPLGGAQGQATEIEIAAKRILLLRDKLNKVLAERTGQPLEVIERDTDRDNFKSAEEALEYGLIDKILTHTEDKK
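Purified B. subtilis ClpP, 10 microg/mL final in Tris/HCl pH8 with KCl, BSA, glycerol and Tween-20, cleaved an Abz/nitrotyrosine-quenched decapeptide. Fluorescence (ex 320, em 430) was read at 0 and 20 min at room temperature. Delta was normalized to 5.8 microM ADEP and DMSO/no-enzyme controls.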
Menin MLL FP FL – menin-MLL binding inhibition, fluorescein peptide; 290,000 tested, under 10 active; AID 1766; Fluorescence polarization, fluorescein-MLL peptide displacement from menin; FP activity change, % at 61.4 µM; inconclusive = falling polarisation curve, or a change in total fluorescence; inactive = total fluorescence flat and polarisation flat or rising; no compound was filed as active; the % refers to the polarisation; negative = inhibition;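 also: % of control where 0% means no effect; inhibitors lower the polarisation; unlabelled MLL peptide was the positive control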
TRPML1 inh – human mucolipin-1 channel inhibition. Q9GZU1. TRPML1-inducible cells, Ca2+ dye fluorescence, FDSS; stronger effect = lower value; inhibition of EC80 agonist-evoked calcium signal. activity change, negative = inhibition, % (test concentration not listed). actives 0.02% (n = 390,000); in the data active means activity change below about -50%; inconclusive means about -30% to -50%; inactive means above about -30%;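 also: stimulus is agonist 54-4 at its EC80 concentration; % is scaled to controls: 0 for no effect and ±100 for the full control effect; compound concentration not given in the record; the text of the record puts the active cut at -80%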
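Tet-induced TRPML1-DL cells loaded with Ca8 no-wash calcium dye were read kinetically on FDSS. Compound addition was followed by EC80 agonist 54-4 (4 uM final); inhibition was read over 110 s.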
* hit, by the source's call; u = inconclusive; x = no result given; & = joins results of further samples; [ ] = another dose, or the depositor's remark.

item | Compound | Sfp inh | TRPML1 ag | TRPV1 PAM | PINK1 modulator | ClpP mod | Menin MLL FP FL | TRPML1 inh
1 | COc1ccc(-c2cn3c(C)c(C(=O)NCCN4CCOCC4)sc3n2)cc1 | -15% | -0.3 | x | -1.0% | 22µM* | 6.2 | 3
2 | Cc1cccc(-n2nnc(-c3nc(-c4cccs4)no3)c2N)c1C | x | 0.4 | x | 0.8% | 0.2% | x | -11
3 | O=C(C[n+]1cccc(CNC(=O)c2ccc(OC(F)F)cc2)c1)Nc1ccc(SC(F)F)cc1 | -20% | -0.5 | 12 | -1.4% | 1.3% | 8.5 | 2
4 | CC(=O)NCCNC(=O)c1ccc(NC2=NC3CS(=O)(=O)CC3S2)cc1 (centres undefined) | 3% | 0.7 | 6 | 1.1% | x | 1.8 | 16
5 | CC(C)c1ccccc1NC(=O)c1ccc2ncsc2c1 | 3% | 0.0 | -7 | 1.6% | x | -2.3 | 16
6 | c1cc(-c2noc(CC3CCCCC3)n2)ccn1 | 12% | 0.3 | -3 | 2.4% | -1.3% | 0.5 | 5
7 | COc1cc(NS(=O)(=O)c2ccc(NC(=O)C(C)Oc3ccc(Cl)cc3Cl)cc2)nc(OC)n1 (centres undefined) | x | 0.2 | x | -1.0% | -2.0% | x | 9
8 | CC1=C(C(=O)Nc2ccc([N+](=O)[O-])cc2)C(c2cccc(C(F)(F)F)c2)NC(=S)N1c1ccccc1 (centres undefined) | 14% | 0.1 | -1 | u | -1.6% | -0.3 | 29
9 | N#CCN(N=Nc1ccccc1)c1ccccc1 | -10% | -0.3 | -5 | 0.8% | 0.1% | 0.4 | 4
10 | CC(=O)N1[C@H](Cc2ccccc2)C=C[C@]1(C)C(=O)NCc1ccccn1 | -12%&5% | -0.4 | 3 | 0.8% | 0.7% | -1.1&0.0 | -6
11 | CC(C)CC(OC(=O)c1ccco1)C(=O)NCC1CCCO1 (centres undefined) | 2% | -0.7 | 4 | 0.4% | 1.0% | -3.1 | 1
12 | Cc1ccc(/C=N/NC(=O)c2ccncc2)o1 | -19% | -1.2 | -15 | 1.3% | 1.3% | 7.1 | -3
13 | Cc1cc(Nc2ccc(Cl)cc2)n(-c2ccccc2)n1 | -4% | 1.6 | -11 | 0.7% | -3.2% | 0.8 | 41
14 | CCOc1ccccc1CN(CCc1ccc2c(c1)OCO2)Cc1ccccn1 | u | 1.7 | -9 | -1.1% | -2.0% | 0.4 | 19
15 | O=C(C1CCCN(S(=O)(=O)c2cccs2)C1)N1CCN(c2cccc(Cl)c2)CC1 (centres undefined) | x | -0.4 | x | 1.1% | -2.5% | x | 63
16 | CN1C(=O)c2ccccc2N(C)C1c1ccc2c(c1)OCO2 (centres undefined) | 7% | -0.4 | 3 | 4.4% | 25µM* | -0.5 | -7
17 | COc1ccc(OC)c(NC(=O)Nc2nc(CN(C)C)cs2)c1 | x | -0.5 | x | 0.8% | 2.0% | x | x
18 | Cc1cccc(OCC(=O)N/N=C/c2ccc(N(C)C)cc2)c1 | -2% | 3.3 | 2 | -2.6% | x | -3.2 | 8
19 | O=C(Nc1cccc(-c2cscn2)c1)C1CCN(Cc2ccsc2)CC1 | 8% | 0.1 | -7 | 1.9% | -3.0% | x | 0
20 | C[C@@]12CCC3[C@@](CCC4[C@@]3(C)CCC[C@@]4(C)C(=O)N3CCCCC3)(CC1=O)C2 (some centres undefined) | x | -0.5 | -7 | -1.3% | -0.6% | x | -1
21 | O=[N+]([O-])/C=C/c1ccc2c(ccn2Cc2ccccc2)c1 | 25µM* | 3.3 | u | -1.6% | 2.2% | -3.7 | 3
22 | O=C(Cc1ccccc1F)Nc1ccc(S(=O)(=O)Nc2ncccn2)cc1 | 7% | 0.2 | 21 | 0.4% | x | 1.9 | -14
23 | CC(Oc1ccccc1)C(=O)NNS(=O)(=O)c1ccc([N+](=O)[O-])cc1 (centres undefined) | 33% | 1.8 | 0 | 0.1% | -0.9% | 2.3 | -12
24 | COc1ccc(-c2c(C)oc3ccc(C)cc23)cc1 | -14% | -0.2 | 2 | u | 1.3% | 1.1 | 10
25 | Cc1ccc(-n2c(O)c(C=NC3CCS(=O)(=O)C3)c3ccccc3c2=O)cc1 (centres undefined) | 22% | 0.1 | -4 | -0.5%[38.3 µM] | -5.9% | 4.0 | -3
26 | Cc1cc(C)n(-c2c(F)c(F)c(COC(=O)c3ccccc3)c(F)c2F)n1 | u | 1.2 | 18 | 1.0% | 0.5% | 1.2 | 15
27 | O=C(Cn1ncc2c([nH]c3ccccc32)c1=O)NCCCN1CCN(c2ccc(F)cc2)CC1 | x | 2.6 | x | 2.2% | -16% | x | -26
28 | O=C(CCN1CCCO1)N1CCCC(N2CCN(c3ccccc3F)CC2)C1 (centres undefined) | 17% | -0.3 | -9 | -0.3% | 0.1% | 0.6 | -4
29 | Cc1ccc(Cc2nc3ccccc3nc2SCC(=O)NCc2ccccc2Cl)cc1 | x | -0.2 | x | 1.4% | 0.2% | x | 2
30 | COc1ccc(NS(=O)(=O)c2cc(NC(=O)[C@@H](NC(=O)c3ccccc3)C(C)C)ccc2C)cc1 | 18% | 1.7 | 1 | 5.1% | 1.3% | 5.7 | 11
31 | Cc1ccc(NC(=O)Cc2cn3ccsc3n2)nc1 | 4% | -0.2 | -2 | 1.2% | 4.1% | -0.4 | 0
32 | CCOc1ccc(S(=O)(=O)/N=C(/Nc2ccc(C)c(S(=O)(=O)N3CCOCC3)c2)c2ccccc2)cc1 | x | 2.1 | x | 3.2% | -0.3% | x | -7
33 | O=C(CN1C(=O)c2ccccc2S1(=O)=O)NCCSCc1ccco1 | 7% | 1.5 | -2 | 8.2%[38.3 µM] | 1.6% | -1.2 | 31
34 | Cc1cc(C)nc(/N=C(\N)Nc2ccc(S(=O)(=O)Nc3nccc(C)n3)cc2)n1 | 6% | 1.5 | 3 | -2.2% | x | -1.2 | -11
35 | NNc1ncnc2sc3c(c12)CCC3 | u | -0.5 | -2 | -3.2% | -2.3% | -0.7 | -4
36 | CNC(=S)N/N=C/c1cc(Br)c(OCc2ccncc2)c(OC)c1 | 16% | -1.2 | 4 | 0.2% | 0.5% | 3.8 | 9
37 | Cc1ccc(CCNC(=O)CN2C(=O)CSc3ccc(S(=O)(=O)N4CCOCC4)cc32)cc1 | x | -1.2 | x | -0.9% | -2.1% | x | -2
38 | CCCCCCN1C[C@H](O)[C@@H](n2cc(C3CC3)nn2)C[C@@H]1c1ccc(Cl)cc1 | x | -0.1 | x | 2.0% | 2.8% | x | -11
39 | Cc1cc(S(=O)(=O)N2CCC3(CC2)OCCO3)c(C)cc1Cl | 5% | -0.1 | -12 | 0.7% | -0.3% | x | 31
40 | O=C(Cn1ccc([N+](=O)[O-])n1)NCc1cccs1 | 22% | 0.8 | 0 | 1.1%[38.3 µM] | -1.0% | 2.8 | -22

Filtered by structure, those above containing an aryl thioether with sulfur outside any ring
item | Compound | Sfp inh | TRPML1 ag | TRPV1 PAM | PINK1 modulator | ClpP mod | Menin MLL FP FL | TRPML1 inh
3 | O=C(C[n+]1cccc(CNC(=O)c2ccc(OC(F)F)cc2)c1)Nc1ccc(SC(F)F)cc1 | -20% | -0.5 | 12 | -1.4% | 1.3% | 8.5 | 2
29 | Cc1ccc(Cc2nc3ccccc3nc2SCC(=O)NCc2ccccc2Cl)cc1 | x | -0.2 | x | 1.4% | 0.2% | x | 2

More entries
item | Compound | Sfp inh | TRPML1 ag | TRPV1 PAM | PINK1 modulator | ClpP mod | Menin MLL FP FL | TRPML1 inh
41 | CCNC(=S)NNC(=O)C(c1ccccc1)c1ccccc1 | 0% | -0.1 | 17 | x | -2.0% | -0.5 | 4
42 | Cc1ccc(C(=O)C(C(=O)/C=C/c2ccccc2)=C2SCCCS2)cc1 | -11% | -1.0 | -3 | 2.4% | -0.4% | 0.7 | 4
43 | COc1cccc(CNC(=O)Cc2ccc(NC(=O)C3=C(C)OCCS3)cc2)c1 | 2% | 0.9 | -19 | 1.2% | -1.9% | x | 29
44 | CC(OC(=O)c1cccc(S(=O)(=O)N2CCCC2)c1)C(=O)c1ccccc1 (centres undefined) | -2% | 1.6 | -8 | -0.6% | -6.3% | x | 45
45 | Cc1ccc2c(c1)N(CC(=O)NCCc1c[nH]c3ccccc13)C(=O)CO2 | 18% | -0.1 | 8 | -1.8%[38.3 µM] | 0.6% | 4.2 | -4
46 | CC1CC(C)CN(C(=O)COc2ccc([N+](=O)[O-])cc2Cl)C1 (centres undefined) | 6% | 0.4 | -21 | 4.6% | 0.3% | 3.8 | 17
47 | Cc1[nH]c(C)c(S(=O)(=O)N2CCN(c3cccc(Cl)c3)CC2)c1C(=O)N1CCCCC1 | 16% | 3.3 | 20 | 2.5% | 1.7% | 5.4 | -12
48 | CC(C)(C)OC(=O)N1CCC(C(=O)N[C@@H](Cc2c[nH]c3ccccc23)C(=O)O)CC1 | 2% | x | -9 | 0.9% | -4.9% | -0.2 | x
49 | CCOC(=O)N1CCN(C(=O)c2ccc3nc4cc(Cl)ccc4c(=O)n3c2)CC1 | x | 0.3 | x | -3.4%[38.3 µM] | 3.5µM* | x | -1
50 | CCOC(=O)C(CO)NC(=O)C1(NC(C)=O)CCCC1 (centres undefined) | x | 0.8 | x | 1.1% | x | x | -16
51 | COc1ccc(-n2c(=O)c(-c3cn(C)c4ccccc34)nc3cnc(OC)nc32)cc1 | 0% | x | x | 0.4% | x | -3.2 | x
52 | Cc1ccc(S(=O)(=O)N2CCCCC2)cc1NC(=O)c1cccs1 | x | 0.4 | -8 | -1.7% | -3.3% | x | -10
53 | CC(C)(C)OC(=O)N[C@@H](Cc1ccccc1)C(=O)NCC1CCC(C(=O)N[C@@H](CCC(N)=O)C(=O)O)CC1 (some centres undefined) | -3% | -0.4 | u | 0.6% | x | 1.9 | 9
54 | Cc1ccc(C)c(NC(=O)c2ccc(CN3CC(=O)N4CCCCC4C3=O)cc2)c1 (centres undefined) | x | 0.9 | x | 0.3% | -1.2% | x | -12
55 | COCC(C)NC(=O)CCc1nnc(C2(c3ccc(Cl)cc3)CCC2)o1 (centres undefined) | 11% | 1.3 | -3 | 0.7% | -0.9% | 1.5 | 6
56 | O=C(NCc1ccccc1OC(F)(F)F)C1CCC(=O)N(C2CC2)C1 (centres undefined) | 12% | 0.0 | 20 | 3.2% | 0.8% | x | 0
